Source: PubChem BioAssay (National Center for Advancing Translational Sciences (NCATS))
Rango complex inh – inhibitors of Rango-importin beta complex formation; Q14974; Rango CFP/YFP FRET sensor + importin beta, 45 min; Potency, µM (series often up to 92.2 µM), inactives show top-dose inhibition of complex formation; actives 0.031% (n = 340,000); AID 540263; active = rising FRET ratio curve, often small or poorly fitted; inconclusive = mostly compound fluorescence or quenching in the first reads; inactive = flat curves in all reads;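 further: potency means the concentration at half of the fitted maximal effect; 0% = DMSO wells and 100% = buffer wells lacking importin beta; nearly all actives have a fitted effect of over 15% in size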
Target sequence (Q14974 whole entry, looked up): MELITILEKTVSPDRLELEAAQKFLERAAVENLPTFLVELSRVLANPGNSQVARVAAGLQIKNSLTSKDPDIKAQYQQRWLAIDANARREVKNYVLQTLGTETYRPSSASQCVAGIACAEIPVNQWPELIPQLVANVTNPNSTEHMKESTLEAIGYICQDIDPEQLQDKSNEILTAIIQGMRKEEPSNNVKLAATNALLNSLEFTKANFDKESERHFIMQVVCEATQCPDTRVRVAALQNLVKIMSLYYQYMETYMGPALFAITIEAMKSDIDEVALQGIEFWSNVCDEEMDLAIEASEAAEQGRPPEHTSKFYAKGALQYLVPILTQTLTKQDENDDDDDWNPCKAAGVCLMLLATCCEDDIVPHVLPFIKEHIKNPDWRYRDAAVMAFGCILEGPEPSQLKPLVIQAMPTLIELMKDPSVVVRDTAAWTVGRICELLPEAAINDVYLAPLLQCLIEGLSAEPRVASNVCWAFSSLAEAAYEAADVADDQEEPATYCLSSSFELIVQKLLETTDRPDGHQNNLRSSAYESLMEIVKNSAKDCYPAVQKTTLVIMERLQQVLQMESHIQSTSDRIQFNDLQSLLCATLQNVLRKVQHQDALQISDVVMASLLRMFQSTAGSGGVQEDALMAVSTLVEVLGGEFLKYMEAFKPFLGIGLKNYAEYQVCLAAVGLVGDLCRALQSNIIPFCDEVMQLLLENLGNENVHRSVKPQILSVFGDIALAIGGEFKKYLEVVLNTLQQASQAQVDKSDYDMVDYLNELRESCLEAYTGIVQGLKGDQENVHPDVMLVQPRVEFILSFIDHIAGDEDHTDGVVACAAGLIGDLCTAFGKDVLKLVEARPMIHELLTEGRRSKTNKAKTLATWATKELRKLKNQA
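FRET biosensor (snurportin 1 IBB flanked by EYFP and cerulean), 50 nM, with compound 5 min, then 0.125 microM importin beta in PBS, 1 mM DTT, 0.02% Tween-20, 0.1% BSA. CFP/YFP ratio read after 45 min at room temperature; pre-read flags interference.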
Rango dissoc inh – inhibition of RanGTP-driven Rango-importin beta dissociation | Biochemical FRET Rango-importin beta, RanGTP-induced dissociation | O95149+P62826 | Potency, µM (highest dose often 46.1 µM), for the others: top-dose activity change, negative = inhibition | actives 0.071% (n = 340,000); active means falling FRET ratio curve, often poorly fitted, with flat reads before Ran was added; inconclusive means other falling curves, or compound fluorescence or quenching; inactive means flat or rising ratio curve;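 further: potency means the concentration at half of the fitted maximal effect; % of control where 0% means no effect; nearly all actives have a fitted effect of over 45% in size; -100% = wells without RanGTP and RCC1; the record marks most hits as doubtful in a second field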
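Compounds preincubate 5 min with complex of recombinant Rango and importin beta in PBS with 1 mM DTT. Ran (0.6 uM) loaded with 2 mM GTP plus 0.2 uM RCC1 starts dissociation; FRET is recorded 45 min later.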
miR-21 reporter – raises the signal of a miR-21 reporter | 340,000 tested, under 10 active | Potency, µM (titrated, usually from 38.3 µM), without a hit: at the highest dose reporter change, positive = more light | AID 2288 | HeLa miR-21 FLuc reporter, luciferase, 48 h; active = well fitted rising curve with a large enough effect; inconclusive = small, poorly fitted or top-dose-only effect; inactive = no such curve, though single readings can be large or run the other way;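 further: % of control where 0% means no effect; miR-21 action dims this reporter so a rising signal means less miR-21 action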
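HeLa cells stably expressing CMV-driven firefly luciferase with a downstream miR-21 binding sequence, endogenously expressing miR-21, were treated with titrations (up to about 40uM final) for 48 hours at 37 degree Celsius. Luciferase luminescence was read after lysis.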
GLA inh pH 4.5 – alpha-galactosidase A (human) inhibition, pH 4.5 | 230,000 tested, under 10 active | P06280 | activity change, negative = inhibition, % at 105 µM | purified enzyme, 4-MU-alpha-Gal fluorescence, pH 4.5; inconclusive = small, poorly fitted or top-dose-only inhibition, or a rising curve; inactive = flat fitted curve, though single readings scatter; no compound was filed as active;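 further: 0% = full activity with enzyme and -100% = basal without enzyme; dose as in the result columns while the protocol names 77 µM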
Active calls of the source: *; ? = inconclusive; / = not tested or not shown. Some of the compounds tested, so the mix of outcomes need not match the whole.

SMILES	Rango complex inh	Rango dissoc inh	miR-21 reporter	GLA inh pH 4.5
COc1cc(C)c(Cl)cc1S(=O)(=O)NCc1ccco1	-0.7%	4%	-10%	0
COc1ccccc1C(=O)NCCNc1nc2cc(C)cc(C)c2cc1C#N	?	12µM*	2%	/
O=C(NCc1cccnc1)/C(=C\c1ccc(-c2ccc(Br)cc2)o1)S(=O)(=O)c1ccccc1	?	6%	?	0
O=C(CCCn1c(=S)[nH]c2cc3c(cc2c1=O)OCO3)NCCc1ccccc1Cl	3.4%	-1%	-6%	/
Cc1ccc2c(c1)C(c1ccc([N+](=O)[O-])cc1)=NNC(c1ccc(Br)cc1)=N2	-0.3%	4%	-17%	-2
O=C(NCc1ccco1)c1ccc(Cl)nc1	-6.3%	2%	-2%	4
O=C(Nc1ccccc1)OC1C2CCC1C(N1CCCCC1)CC2 (configuration not stated)	0.6%	0%	-17%	6
COc1ccc(Cl)cc1Nc1nc(C)nc2c1oc1ccccc12	-2.8%	7%	1%	/
O=c1[nH]c2ccccc2cc1-c1nnn(-c2ccc(Cl)c(Cl)c2)n1	-0.4%	-1%	/	/
CCC1CCCCN1CCCNC(=O)Cn1nc(C)n2nc(-c3ccccc3)cc2c1=O (configuration not stated)	6.9%	9%	-2%	/
CC1CN(C(=O)Nc2ccc3snnc3c2)c2ccccc21 (configuration not stated)	-2.1%	-2%	-11%	4
CC(=O)c1ccc(OC(=O)CCNC(=O)c2ccccc2)cc1	-0.9%	-6%	/	/

Shown as a hit in Rango dissoc inh, among the entries above:
SMILES	Rango complex inh	Rango dissoc inh	miR-21 reporter	GLA inh pH 4.5
COc1ccccc1C(=O)NCCNc1nc2cc(C)cc(C)c2cc1C#N	?	12µM*	2%	/

Next compounds.
SMILES	Rango complex inh	Rango dissoc inh	miR-21 reporter	GLA inh pH 4.5
O=C(CCNC(=O)c1ccccc1)NCC1CCCCC1	11%	15%	-10%	2
O=C(CCc1nc2ccccc2[nH]c1=O)OCc1ccc(S(=O)(=O)N2CCOCC2)cc1	1.3%	-8%	-4%	-3
CCOc1c2ccc(C(=O)NCc3cc(C(F)(F)F)cc(C(F)(F)F)c3)cc2nn1CCOC	1.3%	7%	-4%	1
O=C(C1CCCO1)N1CCN(S(=O)(=O)c2ccc(F)cc2)CC1 (configuration not stated)	0.7%	3%	/	/
O=C(NC1CCCCCC1)c1c2c(nc3ccccc13)CCN(Cc1ccccc1)C2	3.2%	-17%	0%	-1
CC(C)(C)c1cc(=O)[nH]c(SCc2ccccc2Cl)n1	1.4%	-3%	0%	6
CCCCNC(=O)c1cn(CC)c2ccc(S(=O)(=O)N3CCCC3)cc2c1=O	-0.1%	-10%	-1%	/
CCOC(=O)N/N=C/c1cn(Cc2ccc(F)cc2)c2ccccc12	-0.7%	2%	12%	1
O=C(NC1CC1)C1=C[C@H](C2CCCCC2)C[C@H](OCCCCO)O1	-0.4%	3%	-2%	1
CCn1c(NCc2cccc(OC)c2OC)nc2ccccc21	-4.8%	-3%	-40%	1
COc1ccc(C(=O)NCC(=O)N2CC=C(c3ccccc3)CC2)cc1OC	3.2%	20%	/	/
Nc1nc(-c2ccccc2Cl)cs1	-3.5%	-6%	/	/
CCCn1c(N)c(N(CCOC)C(=O)c2ccc([N+](=O)[O-])cc2Cl)c(=O)[nH]c1=O	-0.5%	-12%	4%	/
CCC(C)(C)NC(=O)C(c1ccc(C)o1)N(Cc1cccs1)C(=O)Cn1nnc2ccccc21 (configuration not stated)	0.5%	-5%	-11%	2
C=CCNc1nc(N)c(C(=O)c2ccc3c(c2)OCO3)s1	0.4%	0%	-31%	-1
COC(=O)c1ccc(Nc2nc3ccc(C)cc3n3cnnc23)cc1	3.2%	-1%	-57%	/
CCOC(=O)c1ccc(NC(=O)C2CCCN(S(=O)(=O)c3ccc(F)cc3)C2)cc1 (configuration not stated)	1.1%	8%	?	-4
COc1ccc(CCNC(=O)c2cn3ccc(C)cc3n2)cc1OC	-4.5%	-2%	-19%	8
COc1ccc(NC(=O)CCSCCC(=O)Nc2ccc(OC)cc2OC)c(OC)c1	-4.5%	1%	-3%	-7
O=C(CC1SCCNC1=O)Nc1ccc(Cl)c(Cl)c1 (configuration not stated)	3.0%	8%	-41%	5
CCOC(=O)c1oc2ccccc2c1COC(=O)CNC(=O)c1ccccc1OC	-1.4%	-17%	/	/
C=Cc1ccc(CSc2cc(C)nc3nc(C)nn23)cc1	-3.5%	-5%	16%	-4
S=C(NCc1cccnc1)Nc1ccc(Cl)c(Cl)c1	2.5%	-14%	16%	1
Cc1ccc(S(=O)(=O)N2CCOCC2)cc1C(=O)OCC(=O)c1ccc[nH]1	-4.5%	-11%	/	/
COc1cccc(NC(=O)CN2CCN(S(=O)(=O)c3ccc(F)cc3)CC2)c1	5.8%	0%	1%	5
Cc1ccccc1NC(=O)COC(=O)c1ccc(CSc2ccc(Cl)cc2)cc1	-2.4%	2%	-5%	5
Oc1ccc(Br)cc1-c1cc(-c2ccccc2F)[nH]n1	?	1%	-27%	-7
CC1CCCC(C)N1C(=O)c1ccc(S(=O)(=O)N2CCCC2)cc1 (configuration not stated)	1.2%	8%	/	/
COc1cc(C2C(C(=O)C(C)(C)C)=C(O)C(=O)N2Cc2ccccc2)ccc1O (configuration not stated)	0.6%	1%	-12%	/
COc1ccccc1CNS(=O)(=O)c1ccc2c(c1)oc(=O)n2C	4.5%	-12%	-11%	-4
NC(=O)c1ccccc1NC(=O)c1ccccc1S(=O)(=O)c1ccccc1[N+](=O)[O-]	7.6%	5%	-11%	0
Cc1ccc(C(=O)NCC(=O)OC(C)C(=O)NCCC2=CCCCC2)cc1C (configuration not stated)	0.2%	8%	1%	2
CCCc1cc(C(=O)Nc2cccnc2Cl)no1	-0.3%	9%	-41%	7
COc1ccc(OC)c(NC(=S)Nc2ccccc2)c1	0.0%	-5%	-12%	/
CCCNC(=O)NC(=O)COC(=O)c1ccc(OC)c(S(=O)(=O)N2CCCc3ccccc32)c1	2.9%	0%	-17%	-6
CCOCc1nnc(NC(=O)C2CC(=O)N(CCc3ccc(F)cc3)C2)s1 (configuration not stated)	-0.8%	-2%	-1%	/

Compound profiles (already shown). Order of screens: Rango complex inh, Rango dissoc inh, miR-21 reporter, GLA inh pH 4.5
Shown for `CC1CCCC(C)N1C(=O)c1ccc(S(=O)(=O)N2CCCC2)cc1` (configuration not stated) → 1.2%, 8%, /, /
Shown for `COc1cccc(NC(=O)CN2CCN(S(=O)(=O)c3ccc(F)cc3)CC2)c1` → 5.8%, 0%, 1%, 5

Structural class, the entries above with an NH in an aromatic ring
SMILES	Rango complex inh	Rango dissoc inh	miR-21 reporter	GLA inh pH 4.5
O=C(CCCn1c(=S)[nH]c2cc3c(cc2c1=O)OCO3)NCCc1ccccc1Cl	3.4%	-1%	-6%	/
O=c1[nH]c2ccccc2cc1-c1nnn(-c2ccc(Cl)c(Cl)c2)n1	-0.4%	-1%	/	/
O=C(CCc1nc2ccccc2[nH]c1=O)OCc1ccc(S(=O)(=O)N2CCOCC2)cc1	1.3%	-8%	-4%	-3
CC(C)(C)c1cc(=O)[nH]c(SCc2ccccc2Cl)n1	1.4%	-3%	0%	6
CCCn1c(N)c(N(CCOC)C(=O)c2ccc([N+](=O)[O-])cc2Cl)c(=O)[nH]c1=O	-0.5%	-12%	4%	/
Cc1ccc(S(=O)(=O)N2CCOCC2)cc1C(=O)OCC(=O)c1ccc[nH]1	-4.5%	-11%	/	/
Oc1ccc(Br)cc1-c1cc(-c2ccccc2F)[nH]n1	?	1%	-27%	-7

Only Rango complex inh and GLA inh pH 4.5, for some of the entries so far:
SMILES | Rango complex inh | GLA inh pH 4.5
CCCc1cc(C(=O)Nc2cccnc2Cl)no1 | -0.3% | 7
CCC1CCCCN1CCCNC(=O)Cn1nc(C)n2nc(-c3ccccc3)cc2c1=O (configuration not stated) | 6.9% | /
O=C(C1CCCO1)N1CCN(S(=O)(=O)c2ccc(F)cc2)CC1 (configuration not stated) | 0.7% | /
CCCNC(=O)NC(=O)COC(=O)c1ccc(OC)c(S(=O)(=O)N2CCCc3ccccc32)c1 | 2.9% | -6
COc1ccccc1C(=O)NCCNc1nc2cc(C)cc(C)c2cc1C#N | ? | /
O=C(Nc1ccccc1)OC1C2CCC1C(N1CCCCC1)CC2 (configuration not stated) | 0.6% | 6

The results go on.
SMILES	Rango complex inh	Rango dissoc inh	miR-21 reporter	GLA inh pH 4.5
COc1ccc(OC)c(S(=O)(=O)N2CCC(C(=O)N(C)Cc3ccccc3)CC2)c1	-0.1%	11%	4%	3
CCc1nc(C)cn1S(=O)(=O)c1cc(OC)c(C)cc1C	-1.0%	6%	5%	-1
COc1ccccc1CNC(=O)CNC(=O)[C@@H]1Cc2ccccc2CN1	2.7%	29%	3%	/
CCOC(=O)Cn1cnc2c(sc3nc(C)cc(C)c32)c1=O	-0.3%	12%	-13%	-3
Cc1ccc(S(=O)(=O)NC(=NC(C)C)c2ccccc2)cc1	3.4%	-6%	-1%	-2
O=C(Cc1cccc2ccccc12)Nc1ccccc1Br	0.1%	-13%	-5%	/
O=[N+]([O-])c1cccc(S(=O)(=O)Nc2ccc(-c3ccc(N4CCOCC4)nn3)cc2)c1	-2.6%	0%	/	/
CCCc1cc(C(=O)Nc2ccc(C(=O)c3ccccc3)cc2)n(C)n1	-3.8%	-4%	27%	/
O=C(c1ccc(NS(=O)(=O)c2cccc3cccnc23)cc1)N1CCCCC1	0.0%	10%	-13%	-1
CC1C/C(=N/N2C(=O)CSC2=S)CC(C)(C)C1 (configuration not stated)	2.3%	-19%	-2%	-7
Cc1ccc(/C=C2/SC(=S)N(CCCC(=O)Nc3cc([N+](=O)[O-])ccc3O)C2=O)cc1	-2.6%	-3%	6%	/
Nc1nc(SCC(=O)NC2CCCCC2)n[nH]1	-1.8%	-3%	-1%	/
CCc1sc(NC(=O)CN2CCC(C(N)=O)CC2)nc1-c1ccccc1	-3.0%	-21%	5%	/
COc1ccc(S(=O)(=O)O/N=C2\CCCc3ccccc32)cc1	-0.4%	36%	-1%	11
CCc1ccccc1NC(=O)Nc1cccc(F)c1	-3.8%	-30%	-3%	3
NNC(=O)CNC(c1ccccc1)c1cc(Br)ccc1N (configuration not stated)	4.7%	?	0%	4
Cc1cccc2cc(C#N)c(NCCCn3ccnc3)nc12	?	?	-20%	6
CN(C)c1ccc(/C=C/C(=O)c2cccnc2)cc1	?	?	-5%	-3
O=C(CSc1ncccc1C(=O)O)c1ccc2ccccc2c1	3.5%	-2%	-4%	0
COc1ccc(C(C)=O)cc1COC(=O)CCNS(=O)(=O)c1ccc(C)c(C)c1	0.0%	12%	/	/
Cc1ccc(NS(=O)(=O)c2cc([N+](=O)[O-])ccc2N/N=C/c2sc(N3CCOCC3)nc2-c2ccccc2)c(C)c1	7.3%	4%	-4%	-5
Cc1ccccc1Nc1nc(N)nc(CSc2nc3ccccc3c(=O)n2C)n1	0.2%	-1%	-2%	6
Cc1ccc(OCC(=O)NC2CCS(=O)(=O)C2)c([N+](=O)[O-])n1 (configuration not stated)	-1.2%	1%	/	/
CN1C(=O)/C(=C\c2ccccc2OCc2ccccc2)SC1=S	1.5%	15%	1%	/
COC(=O)Nc1nn(-c2ccc(Cl)cc2)c(=O)c(C#N)c1C	2.1%	2%	-1%	5
O=C(CC(O)CCc1ccccc1)c1ccc(O)cc1 (configuration not stated)	3.9%	-7%	/	/
